2A StopGo = High Throughput Screening for Foot and Mouth Disease Virus Antivirals; human cells with a luciferase reporter of 2A StopGo recoding; control for the full effect not named in the record; Potency, µM (top dose mostly 57.9 µM), inactives show at the highest dose signal change, negative = less light; 1.2% of 410,000 active; AID 1159524, 2015; active = well fitted falling curve with a large enough effect; inconclusive = small, poorly fitted or top-dose-only effect; inactive = no such curve, though single readings can be large or run the other way; tested in HEK293T cells; also: % is scaled to controls: 0 for no effect and ±100 for the full control effect; nearly all actives have a fitted effect of over 45% in size; luciferase light after 4 h
RE007 growth inh = qHTS Assay for Inhibitors of the HIV-1 protein Vpr. S. pombe RE007 Vpr strain, BacTiter-Glo ATP luminescence, 24 h; control for the full effect not named in the record. Potency, µM (doses to about 92.2 µM), for inactives: at the top dose activity change, negative = less growth. 0.21% of 360,000 active; active = well fitted falling curve with a large enough effect; inconclusive = small, poorly fitted or top-dose-only effect; inactive = no such curve, though single readings can be large or run the other way;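 also: % is scaled to controls: 0 for no effect and ±100 for the full control effect; nearly all actives have a fitted effect of over 50% in size; the assay follows cell death caused by Vpr and the record does not say whether a fall means rescue or toxicity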
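Fission yeast RE007 carrying one integrated HIV-1 vpr copy, seeded at OD 0.01 in PMG+AL medium with 23 nL pinned compound. Grown 24 h at 30 degrees; viability read by BacTiter-Glo luminescence after 5 min.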
SARS PLP yeast = qHTS of Yeast-based Assay for SARS-CoV PLP; S. cerevisiae expressing SARS-CoV PLpro, growth rescue; control for the full effect not named in the record; Potency, µM (titrated, usually from 32.9 µM), without a hit: top-dose activity, positive = growth rescue; 0.19% of 330,000 active; active means well fitted rising curve with a large enough effect; inconclusive means small, poorly fitted or top-dose-only effect; inactive means no such curve, though single readings can be large or run the other way; also: 0% is about no effect; nearly all actives have a fitted effect of over 55% in size; growth read by luminescence after 48 h
* marks the source's active call; other numbers are inactive results; ? = inconclusive; [ ] = dose if it differs, or a comment. Potency is read from the fitted curve at half-maximal effect.

| compound | 2A StopGo | RE007 growth inh | SARS PLP yeast |
| --- | --- | --- | --- |
| Cc1ccc(NC(=O)c2cc(-c3ccc(F)cc3)on2)cc1C | 4% | 4% | 0% |
| COc1ccc(C2=CN3CCCCC3CC2=O)cc1OC (stereo not drawn) | 47%[activator] | -6% | -3% |
| CCN(CC(=O)Nc1c(F)cccc1F)C(=O)CCCc1cccs1 | -9% | 0% | 1% |
| COc1cccc(CN(C)C(=O)CN2C(=O)NC(c3ccccc3)(c3ccccc3)C2=O)c1OC | 3% | -4% | 11% |
| CC(=O)Nc1ccc(C(=O)COC(=O)CN2C(=O)NC3(CCCCC3C)C2=O)cc1 (stereo not drawn) | -14% | -3% | 1% |
| CCOc1ccc(C(=O)c2cc3ccc(O)cc3oc2=O)cc1 | 0% | 20% | 1% |
| CC[C@H]1CCCCc2ccccc2[C@@H](C(=O)C[C@@H](O)CC(C)=O)OC1=O | -29% | -6% | 1% |
| COc1ccc(N2CCN(C(CNC(C)=O)c3ccco3)CC2)cc1 (stereo not drawn) | -3% | 9% | 0% |
| CCOC(=O)N1CCN(c2cc(=O)n(-c3ccc(C)cc3)c(=O)[nH]2)CC1 | -19% | 16% | 5% |
| CN(Cc1ccccc1)C(NC(=O)c1ccco1)C(Cl)(Cl)Cl (stereo not drawn) | -16% | 6% | -5% |
| COc1ccc(OC)c(-c2cc(C(=O)Nc3ccc(F)cc3F)no2)c1 | -18% | -4% | 1% |
| Cc1cccc(NC(=O)CNC(=O)CCNC(=O)c2ccc(C(C)(C)C)cc2)c1C | 13% | 7% | 6% |

| compound | 2A StopGo | RE007 growth inh | SARS PLP yeast |
| --- | --- | --- | --- |
| CC(C(=O)N1CCc2ccccc21)N1CCN(S(=O)(=O)c2cccc(C(F)(F)F)c2)CC1 (stereo not drawn) | -29% | 0% | -11% |
| COC(=O)c1ccc(COC(=O)CNC(=O)c2cccc(OC)c2)o1 | -2% | 4% | -2% |
| COc1ccc(C)cc1NC(=O)C1CCCN1S(=O)(=O)c1ccccc1F (stereo not drawn) | -22% | -3% | -2% |
| O=C(Cn1c(=O)oc2ccccc21)Nc1ccccc1N1CCOCC1 | -7% | -10% | 1% |
| C[C@H](CO)N1C[C@H](C)[C@@H](CN(C)S(=O)(=O)c2ccccc2)Oc2ccc(NC(=O)CCN3CCOCC3)cc2C1=O | 14% | 6% | 3% |
| COc1cc(/C=C/C(=O)O)cc2c1OCCO2 | -17% | 3% | 5% |
| Cc1ccc(S(=O)(=O)NCC2(c3ccccc3)CCOCC2)cc1 | 8% | 7% | -1% |
| CN(C)CCCNC(=O)C[C@H]1C[C@H](C(=O)N2CCCCC2)[C@@]2(CCc3ccccc3)c3[nH]c4cc(CCC(=O)N(C)C)ccc4c3CCN2C1=O | 5% | 10% | 19% |
| Cc1ccc([C@@H]2CC=C(C(=O)O)[C@H](c3cccc(Cl)c3)N2S(=O)(=O)c2ccccc2C)cc1 | ? | -19% | -2% |
| O=C(COC(=O)c1ccco1)Nc1cccc(S(=O)(=O)N2CCCCC2)c1 | -11% | 1% | -3% |
| OCCN(Cc1ccccc1)C(=S)Nc1ccc(F)cc1 | 21% | -14% | -2% |
| COc1ccc(-n2c(=O)c3ccccc3n(Cc3ccccc3F)c2=O)cc1OC | -14% | 11% | -2% |

| compound | 2A StopGo | RE007 growth inh | SARS PLP yeast |
| --- | --- | --- | --- |
| COc1ccc2c3c1OC1C(O)C=CC4[C@@H](C2)N(C)CC[C@]314 (stereo partly drawn) | -22% | -3% | -6% |
| COc1ccccc1CNC(=O)c1cc(-c2ccccc2)nn1Cc1cc(C)no1 | 7% | -3% | 4% |
| CC(C)Oc1ccc(C(=O)NCC(=O)Nc2ccc3c(c2)CCC3)cc1 | 32%[activator] | -10% | -3% |
| CN(CC(=O)Nc1cccc(S(=O)(=O)N2CCCCC2)c1)Cc1ccc(F)cc1 | 22% | -3% | -1% |
| CCN(CC)C(=O)c1ccc(NC(=O)COC(=O)c2ccc(Cl)s2)cc1 | -5% | -10% | 3% |
| CCn1c(SCC(=O)OC(C)C)nnc1-c1ccccc1OC | 9% | -2% | 1% |
| CCCNC(=O)N1[C@H]2CC[C@@H]1C(C(=O)OC)=C(c1cccc(Cl)c1)C2 | -16% | 1% | -3% |
| COc1cccc(CC(=O)Nc2cc(S(=O)(=O)N3CCCCC3)ccc2C)c1 | -28% | -6% | -1% |
| O=C(NCc1cccnc1)C(=O)NCC(c1ccco1)N1CCOCC1 (stereo not drawn) | -11% | 14% | -2% |
| Cc1ccccc1-n1nnnc1SCC(=O)NNC(=O)c1ccc(NC(=O)CC#N)cc1 | -13% | 4% | 3% |
| CCOc1cc(C(=O)OCc2cc(=O)n3c(C)csc3n2)ccc1OC | ? | 1% | -5% |
| CCCn1c(N)c(C(=O)CN(C)CC(=O)Nc2ccccc2C(F)(F)F)c(=O)[nH]c1=O | -21% | 4% | -6% |

Reprinted at random: 6 records from the list, in no set order.
| compound | 2A StopGo | RE007 growth inh | SARS PLP yeast |
| --- | --- | --- | --- |
| Cc1ccc(S(=O)(=O)NCC2(c3ccccc3)CCOCC2)cc1 | 8% | 7% | -1% |
| Cc1cccc(NC(=O)CNC(=O)CCNC(=O)c2ccc(C(C)(C)C)cc2)c1C | 13% | 7% | 6% |
| Cc1ccccc1-n1nnnc1SCC(=O)NNC(=O)c1ccc(NC(=O)CC#N)cc1 | -13% | 4% | 3% |
| COc1ccc(C2=CN3CCCCC3CC2=O)cc1OC (stereo not drawn) | 47%[activator] | -6% | -3% |
| COc1cccc(CC(=O)Nc2cc(S(=O)(=O)N3CCCCC3)ccc2C)c1 | -28% | -6% | -1% |
| COc1ccc(OC)c(-c2cc(C(=O)Nc3ccc(F)cc3F)no2)c1 | -18% | -4% | 1% |

The list continues:
Second line of a record: 2A StopGo	RE007 growth inh	SARS PLP yeast
CC1CCC(NC(=O)c2cc(C3CC3)nn2-c2ccccc2)CC1 (stereo not drawn)
    24%	4%	0%
O=C(Nc1cccc(S(=O)(=O)NCc2ccco2)c1)c1cccc(Cl)c1
    50%[activator]	12%	-1%
Cc1ccc2c(C)cc(=S)[nH]c2c1
    1%	8%	26%
O=C1CCN(Cc2ccccc2)C=C1c1ccc(Cl)cc1
    -13%	11%	2%
CC(=O)C[C@H](O)CC(=O)[C@@H]1OC(=O)CCCCCCCCc2ccccc21
    9%	8%	-4%
CCOc1ncccc1C(=O)OCC(=O)NCCc1ccc(S(N)(=O)=O)cc1
    -23%	-8%	10%
Cc1ccccc1C(=O)N[C@H](C(=O)OCC(=O)NC1CC1)C(C)C
    -18%	7%	7%
COc1ccccc1CN(C)C(=O)CN1CCN(S(=O)(=O)c2ccc3c(c2)OCCCO3)CC1
    -5%	-3%	-12%
O=C(/C=C/c1cccs1)NC1CC1
    22%	-7%	0%
CC(=O)N1CCN(CC(O)COc2ccc(S(=O)(=O)N3CCOCC3)cc2)CC1 (stereo not drawn)
    1%	1%	2%
COc1ccc(CN(C)C(=O)c2ccccc2OCc2c(C)noc2C)c(OC)c1
    -8%	5%	-1%
O=C(Nc1ccc(N2CCOCC2)cc1)c1ccc(Cl)c(S(=O)(=O)N2CCCCC2)c1
    ?	0%	-1%
COc1cc(-c2noc(C)c2C(=O)NCCc2ccccc2)cc(OC)c1OC
    -2%	5%	-2%
C[C@]12c3[nH]c4cc(-c5ccco5)ccc4c3CCN1C(=O)[C@@H](CC(=O)NCc1cccc(C(F)(F)F)c1)C[C@@H]2C(=O)N1CCCCC1
    ?	-1%	-7%
CN(C)S(=O)(=O)c1cccc(C(=O)N2CCN(C(=O)C3CCCO3)CC2)c1 (stereo not drawn)
    -7%	0%	2%
C=CCn1c(-c2ccc(Cl)cc2)cnc1SC(C)C(N)=O (stereo not drawn)
    0%	-7%	?
CC(OC(=O)c1ccco1)C(=O)Nc1ccc(C(F)(F)F)cc1 (stereo not drawn)
    -3%	-3%	-10%
CC(C)(C)[C@H]1COC(=O)CCC/C=C/C[C@H](CC(=O)N(CCO)Cc2ccccc2)C(=O)N1
    -1%	-13%	2%
C=CC[C@@H](CC(=O)NCCO)C(=O)NC[C@H](OC(=O)[C@@H](CC=C)CC(=O)OC(C)(C)C)c1ccccc1
    -16%	5%	-10%
O=C(CSc1nnc(-c2ccco2)o1)Nc1c(F)cccc1F
    5%	-7%	2%

Second line of a record: 2A StopGo	RE007 growth inh	SARS PLP yeast
COc1ccc(-c2c(C#CC(C)(C)O)c3ccccc3n2C)cc1
    -16%	19%	-3%
COc1ccc([C@@H]2CC=C(C(=O)O)[C@H](c3ccc(Cl)cc3)N2S(=O)(=O)c2ccc(C)cc2)cc1OC
    14%	0%	0%
CCOC(=O)N1CCC(N(CCN(C)C)C(=S)Nc2cccc(Cl)c2)CC1
    -18%	1%	1%
COc1ccc(-n2ccnc2SCC(=O)NO)cc1
    -15%	6%	1%
C[C@H](CO)N1C[C@H](C)[C@@H](CN(C)C(=O)Nc2ccc(C(F)(F)F)cc2)Oc2c(NC(=O)Cc3ccccc3)cccc2C1=O
    8%	-4%	5%
O=C(COC(=O)c1cc(S(=O)(=O)N2CCOCC2)ccc1F)NC1CCCCC1
    -19%	-1%	1%
CC1(C2CC2)NC(=O)N(CC(=O)N2CCN(c3ccccc3)CC2)C1=O (stereo not drawn)
    ?	-4%	0%
O=C1N[C@@H](Cc2ccccc2)COC(=O)[C@@H](Cc2ccc(F)cc2)C/C=C\C[C@@H]1CC(=O)N(CCO)Cc1ccccc1
    ?	-5%	-1%
O=S1c2ccccc2Nc2ccccc21
    -17%	-10%	3%
CCN1C(=O)[C@@H]2[C@H](C1=O)[C@@H]1C(=O)Nc3ccccc3C(=O)N1[C@@H]2c1cccc(OC)c1
    -9%	-10%	-2%
CCC(CO)Oc1cc(NCc2ccccc2C)c2ncn(C(C)C)c2c1 (stereo not drawn)
    -3%	?	9%
COC(=O)C1=C(c2ccc(Cl)c(C(F)(F)F)c2)C[C@@H]2CC[C@H]1N2C(=O)NCC1CC1
    -30%	-7%	2%
C[C@H]1CN=C(N(C)C)N1CCCC1CCCC1
    -12%	-18%	-7%
CCn1c(SCC(=O)NCC2CCCO2)nnc1-c1ccccc1OC (stereo not drawn)
    -8%	2%	2%
O=C(Cn1cnc2c(OCc3ccccc3)ncnc21)N1CCN(c2ccccn2)CC1
    -16%	11%	0%
COc1ccc(/C=C2\SC(=O)N(CC(=O)Nc3cccnc3)C2=O)cc1OC
    2%	1%	2%
NC(=O)c1ccccc1OCC(=O)N1CCC(Cc2ccccc2)CC1
    32µM*	10%	-13%
C=CC[C@H](CC(=O)NCCO)C(=O)N[C@H](COC(=O)[C@H](CC=C)CC(=O)OC(C)(C)C)c1ccccc1
    -15%	12%	-1%
Cc1nonc1C(=O)N/N=C/c1ccc([N+](=O)[O-])o1
    -20%	-24%	-1%
COc1ccc([C@H]2CC(=O)C=C(C#CC(C)(C)C)C2)cc1
    17%	2%	-3%

Shown field by field: part of the list above
> C=CC[C@H](CC(=O)NCCO)C(=O)N[C@H](COC(=O)[C@H](CC=C)CC(=O)OC(C)(C)C)c1ccccc1
- 2A StopGo: -15%
- RE007 growth inh: 12%
- SARS PLP yeast: -1%

> Cc1nonc1C(=O)N/N=C/c1ccc([N+](=O)[O-])o1
- 2A StopGo: -20%
- RE007 growth inh: -24%
- SARS PLP yeast: -1%

An excerpt from above in order of number of heavy atoms, falling.
Second line of a record: 2A StopGo	RE007 growth inh	SARS PLP yeast
CCC(CO)Oc1cc(NCc2ccccc2C)c2ncn(C(C)C)c2c1 (stereo not drawn)
    -3%	?	9%
COc1ccc(-c2c(C#CC(C)(C)O)c3ccccc3n2C)cc1
    -16%	19%	-3%
O=S1c2ccccc2Nc2ccccc21
    -17%	-10%	3%

New compounds follow
Second line of a record: 2A StopGo	RE007 growth inh	SARS PLP yeast
O=C(CNC(=O)c1ccc(Br)o1)NCC1CCCCC1
    18%	17%	1%
COc1ccc(-c2ccc3c(c2)S(=O)(=O)c2cccc(C(=O)N4CCN(c5ccc(Cl)cn5)CC4)c2C3=O)cc1OC
    ?	-2%	-4%
COc1ccc(C(C)=O)cc1CSc1ccc(S(=O)(=O)N2CCCCC2)cn1
    -16%	?	1%
O=C(C[n+]1ccc(/C=N/O)cc1)NC(=O)Nc1ccccc1
    -22%	114%	2%
COC(=O)[C@]1(Cc2ccccc2)N[C@H](c2ccc(SC3CCCCC3)c(OC)c2)[C@@H]2C(=O)N(C)C(=O)[C@@H]21
    -22%	1%	1%
Cc1ccc(C(=O)N(Cc2nnc(-c3ccc(Cl)cc3)o2)C2CC2)o1
    18%	6%	4%
O=C(NCCOc1ccccc1Cl)c1cccc2c1C(=O)c1ccc(Cl)cc1S2(=O)=O
    1%	0%	-5%

Screens as filed in PubChem.

Some of the compounds tested; count on the stated rates, not on these rows.
